D2 agonist – Beta-Arrestin HTS for Positive Allosteric Modulators of the Human D2 Dopamine Receptor: Agonists. DiscoveRx PathHunter D2 beta-arrestin, luminescence, 90 min; 100% = 57 uM dopamine signal. activation, % (concentration not given with the values). 360,000 tested, 0.084% active. AID 624465, 2012; in the data active = activation above about 40%; inconclusive = about 15% to 40%; inactive = below about 15%; also: compound concentration not given in the record; the text of the record calls up to 30% inactive
Target sequence (P14416 whole entry, looked up): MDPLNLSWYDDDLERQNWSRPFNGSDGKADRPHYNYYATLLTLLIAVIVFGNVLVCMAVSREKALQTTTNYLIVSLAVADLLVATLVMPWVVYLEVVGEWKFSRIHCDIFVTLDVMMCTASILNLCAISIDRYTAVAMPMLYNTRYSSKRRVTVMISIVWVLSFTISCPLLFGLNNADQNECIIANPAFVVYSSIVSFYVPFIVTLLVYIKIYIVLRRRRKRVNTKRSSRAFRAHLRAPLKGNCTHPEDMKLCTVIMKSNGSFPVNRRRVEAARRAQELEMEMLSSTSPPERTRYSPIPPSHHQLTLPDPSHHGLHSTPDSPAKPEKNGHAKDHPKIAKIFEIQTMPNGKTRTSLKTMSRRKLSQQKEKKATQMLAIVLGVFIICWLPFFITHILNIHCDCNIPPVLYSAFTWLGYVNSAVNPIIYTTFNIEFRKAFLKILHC
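Agonist mode: compounds alone added to overnight-plated D2 PathHunter cells for 90 min at 37 C, with 57 uM final dopamine (EC100) defining full response. Beta-arrestin recruitment detected by chemiluminescent reagent, read after 1 h at ambient temperature.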
ClpP mod – qHTS Assay for Activators of ClpP; ATP-dependent Clp protease proteolytic subunit (Bacillus subtilis (strain 168)), P80244; purified B. subtilis ClpP, FRET peptide cleavage, 20 min; 340,000 tested, 1.9% active; Potency, µM (series often up to 57.5 µM), for the others: at the highest dose activity change, negative = active; active = well fitted falling curve with a large enough effect; inconclusive = small, poorly fitted or top-dose-only effect; inactive = no such curve, though single readings can be large or run the other way; also: potency is read from the fitted curve at half-maximal effect; the source files actives as falling curves though it sought activators and does not explain the sign; nearly all actives have a fitted effect of over 65% in size; many hits overshoot -100%
Target sequence (P80244 whole entry, looked up): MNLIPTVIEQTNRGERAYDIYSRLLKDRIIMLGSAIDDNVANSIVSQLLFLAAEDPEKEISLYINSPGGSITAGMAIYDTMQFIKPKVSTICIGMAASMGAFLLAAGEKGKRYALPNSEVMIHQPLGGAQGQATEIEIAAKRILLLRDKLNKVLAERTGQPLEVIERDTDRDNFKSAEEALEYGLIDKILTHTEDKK
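FRET quenching reversal measured ClpP activation: 10 microg/mL B. subtilis ClpP at pH 8 with the FRET-FV decapeptide, read at 430 nm after 320 nm excitation. The 20-min minus 0-min signal was scaled between DMSO/no-enzyme wells and ADEP (5.8 microM final).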
gsp antagonist – qHTS for Antagonists of gsp, the Etiologic Mutation Responsible for Fibrous Dysplasia/McCune-Albright Syndrome: qHTS | 340,000 tested, 0.4% active | Potency, µM (doses to about 76.9 µM), inactives show top-dose activity change, negative = inhibition, actives largely listed as inhibitors | gsp-mutant cells, cAMP HTRF, 30 min; control for the full effect not named in the record; active = falling curve of any shape with a large fitted effect; inconclusive = falling curve, mostly with a smaller effect; inactive = flat or rising curve; cell line not stated here;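 also: intracellular cAMP measured with PDE inhibitor Ro 20-1724 present during compound exposure; potency is read from the fitted curve at half-maximal effect; % is scaled to controls: 0 for no effect and ±100 for the full control effect; nearly all actives have a fitted effect of over 65% in size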
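Measurement of cellular cAMP by homogeneous time-resolved fluorescence following a 30 min compound exposure at 37C. The PDE inhibitor […] was present throughout; the assay buffer was DPBS with 0.05% BSA and 0.005% Tween 20.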
gsp ag – qHTS for Agonist of gsp, the Etiologic Mutation Responsible for Fibrous Dysplasia/McCune-Albright Syndrome: qHTS. Potency, µM (titrated, usually from 76.9 µM), for inactives: at the highest dose activation (cAMP increase), most hits filed as activators. 340,000 tested, 0.13% active. gsp mutant cells, cAMP HTRF, 30 min; control for the full effect not named in the record; active = well fitted activation curve with a large enough effect; inconclusive = small, poorly fitted or top-dose-only effect, or another doubt; inactive = no such curve, though single readings can be large or run the other way; cell line not stated here;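 also: phosphodiesterase inhibitor Ro 20-1724 added with compounds to block cAMP breakdown; potency is read from the fitted curve at half-maximal effect; nearly all actives have a fitted effect of over 60% in size; about a fifth of the inactives were tested at one dose only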
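Cells stably selected in G418 were plated at 2000/well, grown 16-24 hr, then given compounds in DMSO with the PDE inhibitor […] (300 uM solution added) for 30 min at 37C; cAMP was read by HTRF.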
PINK1 expr mod – A Quantitative High throughput Screen to Identify Chemical Modulators of PINK1 Expression | PINK1 immunofluorescence, high-content cytometry, 24 h | Potency, µM (series often up to 76.6 µM), for the others: at the highest dose activation (PINK1 increase), usual class: activators | 410,000 tested, 0.2% active; active = well fitted activation curve with a large enough effect; inconclusive = small, poorly fitted or top-dose-only effect; inactive = flat fitted curve, though single readings scatter; cell line not stated here;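 also: potency is read from the fitted curve at half-maximal effect; % of control where 0% means no effect; nearly all actives have a fitted effect of over 65% in size; a mitochondrial uncoupler was the plate control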
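Readout is PINK1 immunofluorescence, quantified alongside mitochondrial, cell and nuclear markers by laser-scanning microplate cytometry. Cells from a stable line were exposed to compound titrations (5 concentrations) for 24 hours, with CCCP controls.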
Menin MLL FP FL – qHTS Assay for Inhibitors Targeting the Menin-MLL Interaction in MLL Related Leukemias: Competition With Fluorescein Labeled MLL-derived Peptide; Fluorescence polarization, fluorescein-MLL peptide displacement from menin; FP activity change, % at 61.4 µM; 290,000 tested, under 10 active; AID 1766, 2009; inconclusive = falling polarisation curve, or a change in total fluorescence; inactive = total fluorescence flat and polarisation flat or rising; no compound was filed as active; the % refers to the polarisation; negative = inhibition;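 also: % of control where 0% means no effect; inhibitors lower the polarisation; unlabelled MLL peptide was the positive control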
Sfp PPTase inh – qHTS Assay for Inhibitors of Bacillus subtilis Sfp phosphopantetheinyl transferase (PPTase) | 4'-phosphopantetheinyl transferase ffp (Bacillus subtilis), Q9F4F7 | Biochemical Sfp PPTase activity, qHTS | Potency, µM, for the others: max response, negative = inhibition, actives largely listed as inhibitors | 310,000 tested, 3.5% active; active = well fitted inhibition curve with a large enough effect; inconclusive = small, poorly fitted or top-dose-only effect, or another doubt; inactive = no such curve, though single readings can be large or run the other way;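 also: the enzyme is Sfp with the accession as filed and its product quenches rhodamine fluorescence; potency is read from the fitted curve at half-maximal effect; 0% = enzyme reaction without inhibitor and -100% = no enzyme wells; top concentration of the series not given in the record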
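With Hepes-Na pH 7.6 buffer containing 10 mM MgCl2, Sfp (15 nM) modified BHQ-2-YbbR (12.5 uM) using rhodamine-CoA (5 uM). Two reads 30 minutes apart at 525/598 nm yielded each well's rate.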
Active calls of the source: *; ? = inconclusive; . = no result given; [ ] = another dose, or the depositor's remark.

#	smiles	D2 agonist	ClpP mod	gsp antagonist	gsp ag	PINK1 expr mod	Menin MLL FP FL	Sfp PPTase inh
1	CCN(CC)c1ccc(C(=O)NNC(=O)CNC(=O)c2cccs2)cc1	-2.0	-9.6%	3%	5%	0.2%	.	.
2	O=C(CSCc1cccc(Br)c1)N1CCOCC1	-1.8	-1.0%	7%	1%	-2.6%	1.0	24%
3	COC(/C=C/Nc1ccc(Cl)cc1)=C(C#N)C#N	3.0	.	10%	-1%	-0.9%	1.4	27%
4	CCCc1nc2ccccc2n1CCc1ccccc1	-2.2	.	-5%	-5%	4.0%	0.1	-6%
5	CS(=O)(=O)c1ccc(-n2nnc3ccccc32)c([N+](=O)[O-])c1	5.9	.	-11%	-28%	-1.2%	5.7	8%
6	O=C(Cc1cccs1)N/N=C/C=C/c1ccco1	-3.0	-3.4%	12%	10%	1.6%	16	?
7	COc1ccc(C(=O)Nc2nc3c(s2)CCCC3)cc1S(=O)(=O)N1CCCc2ccccc21	-0.7	?	-19%	-8%[15.4 µM]	-1.6%	6.2	-22%
8	COc1ccc(NS(=O)(=O)c2cccc(C(=O)NCC(c3cccs3)N3CCOCC3)c2)cc1 (stereo unspecified)	3.1	0.0%	-1%	-9%[15.4 µM]	2.3%	.	.
9	Cc1ccc(NC(=O)c2cccc3c2C(=O)N(C2CCCCC2)C3)c(Cl)c1	-1.0	-1.1%	-2%	2%	5.4%	-0.4	11%
10	CCOc1ccc(S(=O)(=O)NCC(=O)N(C)Cc2cccnc2)cc1	-2.4	-23%	3%	22%	1.2%	-2.3	-1%
11	CCN1/C(=C2\C(=O)N(C)C(=S)N2C)C=Cc2cc(OC)ccc21	-0.1	.	-17%	17%[15.4 µM]	1.4%	-0.9	50µM*
12	CCOc1ccc(CSC2=NCCN2)cc1Cl	-5.7	0.2%	16%	-14%	3.0%	-0.8	3%
13	CC1(C(=O)NCc2cccs2)CCN1C(=O)Cc1ccc(Cl)cc1Cl (stereo unspecified)	1.3	2.0%	.	.	2.1%	.	.
14	CCc1cccc(C)c1N1C(=O)CN(Cc2ccccc2)C1=S	-2.6	.	-12%	3%	8.1%	5.6	14%
15	CCOC(=O)C1CCCCN1S(=O)(=O)c1ccc2c(c1)CC(C)N2C(=O)C1CCC1 (stereo unspecified)	4.1	1.8%	-17%	9%	-0.3%	1.8	5%
16	COc1ccc(C(CNC(=O)c2oc3ccc(OC)cc3c2C)N2CCCC2)cc1 (stereo unspecified)	-6.3	?	-15%	-28%	7.9%	.	.
17	Cc1ccc(C(F)(F)F)cc1NC(N)=S	-5.4	.	5%	-18%	4.0%	2.5	13%
18	COc1ccc(C(=O)NC(=S)Nc2ccc(S(=O)(=O)Nc3cc(OC)ncn3)cc2)cc1	-0.9	.	-29%	?	-0.4%	-3.6	5%
19	Cc1cc(N2C(=O)C=CC2=O)c([N+](=O)[O-])cc1C	-11	.	0%	-29%	0.4%	3.1	-98%
20	COC(=O)C(C)Sc1nc(N)c(NC(=O)c2ccco2)c(=O)[nH]1 (stereo unspecified)	2.3	0.1%	3%	-12%	1.1%	-3.4	?
21	CN(CC(=O)Nc1ccc(Cl)cc1)C(=O)CNC(=O)c1ccc(Br)o1	0.0	-1.3%	-2%	-6%	0.1%	.	.
22	COc1cc(C(=O)NCCOc2cc(C)cc(C)c2)c(Br)c(OC)c1OC	-0.7	-3.8%	-5%	-7%	8.2%	0.4	1%
23	Clc1ccc(-c2csc(N3CCc4ccccc4C3)n2)cc1	-3.7	-3.4%	-3%	4%	-0.4%	2.6	12%
24	CCOC(=O)C1(Cc2ccccc2)CCN(Cc2cc(=O)c3ccccc3[nH]2)CC1	3.1	-3.0%	-6%	-81%	-1.9%	4.2	-2%
25	O=C1c2ccccc2C(=O)N1CCC(O)C[N+](=O)[O-] (stereo unspecified)	-2.9	.	-3%	13%	2.0%	0.8	2%
26	CCOC(=O)N(C)C[C@@H]1OCc2cnnn2CCCC(=O)N([C@H](C)CO)C[C@H]1C	-10	-0.4%	.	?	0.6%	.	.
27	OCCCNc1ncnc2c1ncn2[C@H]1CN(Cc2cccs2)C[C@@H](CO)O1	-4.8	-3.3%	.	.	0.1%	.	.
28	CCCc1nnc2c(N(C)S(=O)(=O)c3ccc(C)cc3)nc3ccccc3n12	-3.4	-8.2%	-4%	3%	2.4%	3.7	0%
29	O=C(NCCc1ccccc1F)c1ccc2c(c1)OCCO2	-4.3	.	6%	3%[15.4 µM]	1.1%	3.8	13%
30	CCOC(=O)c1nn(-c2ccc(F)cc2)c2nc(-c3ccccc3)c(C#N)c(=O)n12	-4.1	?	?	-64%[inhibitor]	-2.2%	3.0	-12%
31	O=C(c1csnn1)N1CCC[C@@]2(CCN(Cc3nccs3)C2)C1	.	.	.	.	-0.1%	0.9	23%
32	O=[N+]([O-])c1ccc2nccn2c1	-3.6	-1.5%	10%	-5%	29%[38.3 µM]	3.2	4%
33	CCCCOC(=O)c1cc(=O)[nH]c2ccccc12	-0.6	-18%	0%	2%	-4.4%[38.3 µM]	3.7	4%
34	COC(=O)c1ccccc1NC(=O)c1cccc(NC(=O)CSCc2ccccc2)c1C	-2.0	-0.7%	29%	?	.	1.5	15%
35	O=C(Nc1cc(C(F)(F)F)ccc1N1CCCC1)c1ccc2c(c1)OCO2	-2.2	-0.2%	?	0%	0.6%	7.7	19%
36	CCOC(=O)/C(C(N)=NCC(C)C)=C(/O)c1ccccc1	0.6	-2.7%	-5%	9%	1.6%	2.0	15%
37	Cc1nc(NC(=O)/C=C/c2ccc(F)cc2)sc1C(=O)N(C)C	0.7	-2.8%	8%	-16%	2.3%	4.1	6%
38	CCNC(=O)OCC(CC)NC(=O)OCC(C)C (stereo unspecified)	-3.3	0.8%	-3%	5%	4.3%	1.3	15%
39	O=C(O)CCn1cc(-c2ccc(Cl)cc2)nc1-c1ccncc1	-2.6	-15%	4%	.	0.2%	.	.
40	O=S(=O)(c1ccc(SCCOc2ccc(F)cc2)nc1)N1CCCC1	-3.1	-6.2%	-5%	?	-0.9%	.	.

Grouped by structure, those above containing an NH in an aromatic ring (three)
#	smiles	D2 agonist	ClpP mod	gsp antagonist	gsp ag	PINK1 expr mod	Menin MLL FP FL	Sfp PPTase inh
20	COC(=O)C(C)Sc1nc(N)c(NC(=O)c2ccco2)c(=O)[nH]1 (stereo unspecified)	2.3	0.1%	3%	-12%	1.1%	-3.4	?
24	CCOC(=O)C1(Cc2ccccc2)CCN(Cc2cc(=O)c3ccccc3[nH]2)CC1	3.1	-3.0%	-6%	-81%	-1.9%	4.2	-2%
33	CCCCOC(=O)c1cc(=O)[nH]c2ccccc12	-0.6	-18%	0%	2%	-4.4%[38.3 µM]	3.7	4%

Continuation:
#	smiles	D2 agonist	ClpP mod	gsp antagonist	gsp ag	PINK1 expr mod	Menin MLL FP FL	Sfp PPTase inh
41	CC(=O)c1cccc(N2C(=O)C3C(C(=O)Nc4cc(C)on4)C4(C)C=CC3(O4)C2C(=O)NC(C)(C)C)c1 (stereo unspecified)	-5.5	-0.9%	-10%	-18%	0.3%	-2.9	-1%
42	FC(F)(F)c1cccc(-c2nnc3ccc(C(F)(F)F)cn23)c1	-2.3	-24%	-4%	?	-1.9%[38.3 µM]	1.7	20%
43	O=C(CCN1CCN(c2ccc(F)cc2)CC1)Nc1ccc(F)cc1	-1.6	-2.6%	7%[15.4 µM]	17%	5.4%	2.2	3%
44	COCCN1C(=O)c2ccc(C(=O)O)cc2C1=O	-1.7	-1.3%	3%	-37%[inhibitor]	9.5%[38.3 µM]	-0.7	10%
45	Cc1nn(C)cc1CN(C)C(=O)c1nn2c(c1Br)NC(c1cccs1)CC2C(F)(F)F (stereo unspecified)	1.3	.	-1%	-8%	0.5%	0.7	8%
46	CC(Sc1nnc2c(n1)[nH]c1ccccc12)C(=O)NC1CCCCC1 (stereo unspecified)	-1.2	.	-18%	17%	11%	.	-3%
47	COc1cccc(NC=C2C(=O)OC3(CCCCC3)OC2=O)c1	0.0	-2.1%	-3%	-3%	1.5%	-0.9	9%
48	CCCc1nnc(NC(=O)NCCN2C(=O)C3C4C=CC(C4)C3C2=O)s1 (stereo unspecified)	-4.3	-0.6%	8%	9%	0.6%	0.4	18%
49	Nc1cccc(C(=O)Nc2ccc3nc(-c4cccnc4)[nH]c3c2)c1	1.5	-2.3%	-7%	1%	1.0%	5.2	10%
50	Cc1n[nH]c(=O)c2c(NC(=O)COC(=O)Cc3ccc(Cl)cc3Cl)oc(C)c12	1.4	-2.3%	-4%	0%	-2.2%	.	.
51	Cc1nn(C)c(C)c1NS(=O)(=O)c1ccc(Cl)cc1	-0.9	-4.7%	9%	-89%	-0.6%	.	.
52	CC1Cc2cc(S(=O)(=O)NCc3ccccc3)ccc2N1C(=O)C1CC1 (stereo unspecified)	4.7	2.1%	6%	-19%	7.9%	1.3	17%
